PABP FP inh – blocks human PABP binding to poly(A) RNA | AID 2014 | hit rate 1% among 290,000 | fluorescence polarization | inhibition, % at 35 µM | P11940;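 active = 50% or more with normal probe brightness, or confirmed in later tests; inconclusive = above 50% with abnormal brightness, or retests that disagree; inactive = below 50% or failed in later tests; about a fifth of its hits are not listed in these tables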;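 note: calls also rest on retests at 20 µM and on dose response follow-up; controls were probe without protein and protein plus probe with vehicle; some compounds called inactive have numbers as strong as hits; many hits fall short of the cut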
UUG fidelity – alters start codon recognition fidelity in yeast; activity score, % at 18.7 µM; hit rate 0.13% among 350,000; S. cerevisiae UUG-firefly luciferase reporter, luminescence/redox ratio;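 active = replicate mean at a twofold rise or more, about +100% in these data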;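 note: firefly luciferase made from a UUG start codon reports start codon fidelity; reporter light over untreated wells divided by growth signal over untreated wells; some hits fall short of that in this replicate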
eIF4H inh – inhibitors of RNA binding by human eIF4H; eIF4H fluorescence polarization binding assay; inhibition, % at 35 µM; hit rate 0.94% among 290,000; Q15056;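 active = 50% or more with normal probe brightness, or confirmed in later tests; inconclusive = above 50% with abnormal brightness, or retests that disagree; inactive = below 50% or failed in later tests; about a fifth of its hits are not listed in these tables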;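 note: calls also rest on retests at 20 µM and on dose response follow-up; 0% = protein and probe with vehicle and 100% = probe without protein; strong numbers were not always called active; many hits fall short of the cut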
CSC inhib – cancer stem cell inhibition; cancer stem cell-like cells viability, luminescence; inhibition, % at 7.5 µM; hit rate 1.1% among 300,000; AID 2717;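 active = mean at 75% or more and at least half the replicates too; inconclusive = mean and replicates disagree; tested in HMLE shEcad cells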;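 note: 0% = median of negative and 100% = median of positive control wells; the first replicate is given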
Rce1 inhib – inhibitors of yeast Ras-converting enzyme. hit rate 0.27% among 290,000. calls only. yeast membranes, quenched prenylated peptide cleavage fluorescence. Q03530;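 active = fall in fluorescence gain of 50% or more versus controls, with final raw signal at or below 3038400; inconclusive = same 50% fall but final raw signal above 3038400; inactive = fall in fluorescence gain under 50%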;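 note: plate controls were neutral control wells for no effect and wells lacking membranes for full effect; tested at 10 µM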
Target sequence (Q03530 whole entry, looked up): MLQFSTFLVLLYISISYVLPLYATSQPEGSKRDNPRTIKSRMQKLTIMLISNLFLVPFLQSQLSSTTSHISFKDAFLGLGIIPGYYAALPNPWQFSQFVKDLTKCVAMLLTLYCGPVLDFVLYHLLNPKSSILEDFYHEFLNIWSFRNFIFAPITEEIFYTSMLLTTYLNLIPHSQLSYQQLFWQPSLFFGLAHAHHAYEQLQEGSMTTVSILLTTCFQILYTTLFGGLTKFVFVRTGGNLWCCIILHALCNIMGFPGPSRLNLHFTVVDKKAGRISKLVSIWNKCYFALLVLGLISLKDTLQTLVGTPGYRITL
MT1-MMP act inh – blocks activation of human MT1-MMP | hit rate 0.061% among 360,000 | P50281 | AID 651647 | GFP/RFP ratio change, % at 20 µM | HT1080 RFP-PRO-GFP cells, GFP/RFP ratio fluorescence, overnight; percent of plate control window, DMSO zero;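 active = GFP/RFP ratio change of at least 30% with cell ATP level not reduced by more than half and red fluorescence within 50% of control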; note: strong numbers were not always called active
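Test system: HT1080 RFP-PRO-GFP cells; Benchmarks: DMSO and RFP-L50D-GFP cell wells; Timing: cells overnight before dosing, compound overnight, 37 °C, 5% CO2; Compound: one 20 µM compound dose with 1% DMSO; Read-out: GFP/RFP fluorescence ratio.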
Env fusion inh – blocks HIV Env-driven cell-cell fusion; HeLa-JRFL Env/CEM21 cell fusion, luciferase; inhibition, % at 12.3 µM; hit rate 1.1% among 360,000; AID 651610;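 active = mean replicate inhibition score of at least 50 and every replicate individually at or above 50; inconclusive = only one of the two criteria met; inactive = mean below 50 and not all replicates reaching 50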;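 note: 0% = plate neutral controls and 100% = maraviroc near 300 nM; one replicate is shown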
eIF4H inh retest – recorded beside eIF4H inh, whose call it bears; inhibition, %; compound at 20 µM; confirmation average;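 mean of two retest wells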
PABP FP inh retest – second read-out of PABP FP inh, no call of its own (marks repeat the call); inhibition, %; compound at 20 µM; confirmation repeats;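 mean of two retest wells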
MT1-MMP act inh RFP – further read-out of MT1-MMP act inh, marked with its call; RFP signal change, %; measured here: RFP expression control read;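 0 = vehicle wells; hits needed this value within 50% of zero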
Numbers without * were called inactive; i = inactive; ? = inconclusive; · = no result given; & = joins results of further samples.

SMILES	PABP FP inh	UUG fidelity	eIF4H inh	CSC inhib	Rce1 inhib	MT1-MMP act inh	MT1-MMP act inh RFP	Env fusion inh	others
COc1cccc(CC(=O)N(C)C2CCCN(Cc3ccccc3F)C2)c1 (centres undefined)	13	7	2	-11	i	-2	3	6
CN(C)P(=O)(C(Cl)=C(N1CCCCC1)N1CCCCC1)N(C)C	-3	-10	4	-5	i	3	7	·
COc1ccc(NC(=O)N2CCC3(CC2)OCCO3)c(OC)c1	81	·	99	4	i	0	5	-10	eIF4H inh retest=-8;PABP FP inh retest=8
CCCCNC(=O)c1c(N)n(CCCOC)c2nc3ccccc3nc12	-6	7	0	-18	i	-11	0	14
CCN(CC)CCOC(=O)c1cc2cc(COC)ccc2o1	71*	-7	4	-12	i	1	6	·
COCCNC(=O)Cn1cc(/C=C2\C(=O)NC(=O)N(c3ccccc3F)C2=O)c2ccccc21	?	-6	?	0	i	0	6	1
CCOc1ccc(N=Cc2c(O)n(-c3ccc(C)c(C)c3)c(=O)[nH]c2=O)cc1	2	5	-5	5	i	0	3	20
CCCCCn1c(=O)c(C(=O)NCc2ccccn2)c(O)c2ccccc21	-1	-16	-3	36	i	-12	-14	·
C[C@]12N[C@H](Cc3ccccc31)c1ccccc12	·	-14&2	·	-4	i	0&2	-1&4	20&-20
Nc1ccc2c(c1)Cc1ccccc1-2	6	-6	-1	-8	i	1	0	-129
O=c1[nH]c2ccccc2c(=O)n1-c1cccc(Cl)c1	8	-12	2	-12	i	-1	0	-38
Cc1c(CCN)ccc2c1[nH]c1ccccc12	0	-13	-4	18	i	3	0	-18

Five entries from above, sorted by count of non-hydrogen atoms, rising.
SMILES	PABP FP inh	UUG fidelity	eIF4H inh	CSC inhib	Rce1 inhib	MT1-MMP act inh	MT1-MMP act inh RFP	Env fusion inh	others
Nc1ccc2c(c1)Cc1ccccc1-2	6	-6	-1	-8	i	1	0	-129
C[C@]12N[C@H](Cc3ccccc31)c1ccccc12	·	-14&2	·	-4	i	0&2	-1&4	20&-20
CCCCCn1c(=O)c(C(=O)NCc2ccccn2)c(O)c2ccccc21	-1	-16	-3	36	i	-12	-14	·
CCOc1ccc(N=Cc2c(O)n(-c3ccc(C)c(C)c3)c(=O)[nH]c2=O)cc1	2	5	-5	5	i	0	3	20
COCCNC(=O)Cn1cc(/C=C2\C(=O)NC(=O)N(c3ccccc3F)C2=O)c2ccccc21	?	-6	?	0	i	0	6	1

More entries:
SMILES	PABP FP inh	UUG fidelity	eIF4H inh	CSC inhib	Rce1 inhib	MT1-MMP act inh	MT1-MMP act inh RFP	Env fusion inh	others
Cc1ccc(N2C(=O)NC(=O)/C(=C\c3ccsc3)C2=O)cc1C	-10	·	82	·	i	·	·	·	eIF4H inh retest=0;PABP FP inh retest=-9
Cc1ccccc1-n1c(O)c(/C=N/N2CCOCC2)c(=O)[nH]c1=S	-7	-19	-6	·	i	5	14	-9
O=c1[nH]c(=O)n(Cc2ccc(F)cc2)c(O)c1C=NCC1CCCO1 (centres undefined)	-3	-10	-9	0	i	0	-1	·
COC(=O)C1=C(c2ccc(F)cc2OCc2ccccc2)C[C@@H]2CC[C@H]1N2C(=O)NCc1ccccc1OC	·	-3	·	21	·	-12	-8	-128
O=C1CN=C(c2cc([N+](=O)[O-])ccc2Cl)c2cc([N+](=O)[O-])ccc2N1	·	-17	·	-4	i	1	-2	-4
CNC(=O)Oc1ccc(-c2cn3cc(Cl)ccc3n2)cc1	14	·	-2	9	i	3	2	·
CSc1ccc(C(=O)C2CCCN(C)C2)cc1 (centres undefined)	-5	·	3	-2	i	-2	1	-2
Cc1nn(Cc2ccccc2)c(C)c1C=C1C(=O)NC(=O)NC1=O	?	1	?	·	i	3	2	-3
Cc1ccc(-c2nc(CS(=O)CC(=O)N3CCC4(CC3)OCCO4)c(C)o2)cc1 (centres undefined)	-14	-3	1	·	·	1	2	-4
Cc1cccc(N=C2c3cc([N+](=O)[O-])ccc3-c3c2cc([N+](=O)[O-])cc3[N+](=O)[O-])c1	·	-68	·	·	·	15	-6	?
c1ccc(C2OCCN3CCCCC23)cc1 (centres undefined)	-6	·	-3	·	·	-4	1	·
Nc1ccc(S(=O)(=O)N2CC3CC(C2)c2cccc(=O)n2C3)cc1 (centres undefined)	-4	-10	-12	5	i	-1	8	-13

Fetched one by one from the list above:
SMILES	PABP FP inh	UUG fidelity	eIF4H inh	CSC inhib	Rce1 inhib	MT1-MMP act inh	MT1-MMP act inh RFP	Env fusion inh	others
O=c1[nH]c2ccccc2c(=O)n1-c1cccc(Cl)c1	8	-12	2	-12	i	-1	0	-38
c1ccc(C2OCCN3CCCCC23)cc1 (centres undefined)	-6	·	-3	·	·	-4	1	·

Remaining list, next part:
SMILES	PABP FP inh	UUG fidelity	eIF4H inh	CSC inhib	Rce1 inhib	MT1-MMP act inh	MT1-MMP act inh RFP	Env fusion inh	others
O=C1CCCN1CC#CCN1CCCC1	-9	-14	2	-6	i	2	3	-23
Cc1ccc(Cl)cc1-n1c(O)c(C=NCCCN2CCOCC2)c(=O)[nH]c1=O	3	1	-4	-20	i	-2	5	·
O=C(CCNC(=O)N1C[C@H]2C[C@@H](C1)c1cccc(=O)n1C2)Nc1ccc(F)cc1	1	-22	10	-6	·	0	-1	·
O=C(CCN1CCOCC1)NCC(=O)Nc1ccc(Br)cc1C(=O)c1ccccc1	-4	2	-6	11	i	-4	1	-70
COc1cc(/C=N/n2cnnc2)ccc1OC(=O)N(C)C	4	·	-10	·	i	9	4	·
C=CCN=C(SCC(=O)c1ccc(Cl)cc1)c1c(O)n(C)c(=O)n(C)c1=O	4	·	-14	-3	i	5	4	6
COC(=O)C1=C(c2ccc(-c3ccccc3)c(F)c2)C[C@@H]2CC[C@H]1N2C(=O)NCCOc1ccc(OC)cc1	·	-10	·	11	·	-6	-21	-67
C=CCOC(=O)C1C(C(=O)O)C2(Cl)C(Cl)=C(Cl)C1(Cl)C2(Cl)Cl (centres undefined)	·	-9	·	·	·	2	5	-28
C/C=C(\C)C(=O)N[C@@H](c1ccccc1)[C@@H](O)C(=O)O[C@H]1C[C@@]2(O)[C@@H](OC(=O)c3ccccc3)C3[C@](C)(C(=O)[C@H](O)C(=C1C)C2(C)C)[C@@H](O)C[C@H]1OC[C@@]31OC(C)=O (some centres undefined)	-16	-18	-6	63	i	-11	-12	·
Cc1c(C)c2ccc(OCC(=O)N3C[C@H]4C[C@@H](C3)c3cccc(=O)n3C4)cc2oc1=O	13	4	-7	-12	i	5	-2	·
CN1/C(=C\C=C\C2=[N+](C)c3ccc4ccccc4c3C2(C)C)C(C)(C)c2ccccc21	?	·	?	115*	·	·	·	·
Cc1ccc(C2=NCC(=O)N(CC(=O)N3CCCCC3)c3sc(C)c(C)c32)cc1	5	0	4	10	i	-5	-2	-10
Cc1c(OC(=O)N(C)C)ccc2c1O/C(=C\c1ccco1)C2=O	16	-31	26	3	i	-10	-3	-2
Cc1ccc(C2=CCNCC2)cc1	57	-15	-2	-1	i	-1	-2	17	eIF4H inh retest=-18;PABP FP inh retest=19
C[C@]12CCC3C(CC[C@H]4C[C@H](O)CC[C@]34C)C1C[C@@H](O)[C@@H]2O (some centres undefined)	·	-12	·	-4	·	0	4	-12
CCCCn1nnnc1C(CCc1ccccc1)N1CCC(n2c(=O)[nH]c3ccccc32)CC1 (centres undefined)	·	2	·	·	·	-14	-10	-81
COc1ccc(OC(=O)N(C)C[C@@H]2OCc3cnnn3CCCC(=O)N([C@H](C)CO)C[C@@H]2C)cc1	·	-1&12&0	·	·	·	6	8	23
CCOC(=O)C(C)Oc1cc(C)cc2oc(=O)c3c(c12)CCCC3 (centres undefined)	2	-10	-2	·	i	7	-1	·
FC(F)(F)c1cccc(N2CCNCC2)c1	2	·	7	-3	i	·	·	·
COc1cc2c3c(c1OC)Oc1ccc(cc1)C[C@H]1c4c(cc(OC)c(OC)c4Oc4ccc(cc4)C[C@@H]3N(C)CC2)CCN1C	·	7	·	·	·	-9	-2	11
CN1C(=O)C(=Cc2ccccc2OS(=O)(=O)c2ccccc2)C(=O)N(C)C1=O	17	0	2	-2	i	-1	0	-8
C=CCNC(=S)N1Cc2cc(Br)ccc2-n2nncc2C1	·	-13	·	·	·	-2	2	9
Cc1ccc(NC2=NCCCS2)c(C)c1C	0	·	2	11	i	9	1	-32
O=C1c2ccccc2-n2nnnc2C2c3ccccc3-n3nncc3CN12 (centres undefined)	·	-10	·	·	·	2	4	-3
c1ccc2oc(-c3ccc4c(c3)CNCc3cnnn3-4)cc2c1	·	-13	·	·	·	8	1	-65
O=C(Cc1ccccc1)N1CCN(CC2CC3C=CC2C3)CC1 (centres undefined)	-4	-9	3	25	i	5	3	·
Clc1ccccc1C1NCc2ccccc2-n2cccc21 (centres undefined)	-9	·	-1	-8	i	-6	-5	2
CCC12CN3CC(CC)(CN(C1)C3c1cccnc1)C2=O (centres undefined)	-11	-1	-3	3	i	1	-1	·
COC(=O)C1=C(c2ccc(OCc3ccccc3)cc2)C[C@@H]2CC[C@H]1N2C(=O)NCc1ccc(OC)c(OC)c1	·	-16	·	-2	·	4	-10	-245
Nc1ccccc1-[n+]1c(-c2ccccc2)cc(-c2ccccc2)cc1-c1ccccc1	23	3	36	7	i	-9	-13	-17
CC12CCC(=O)C=C1CCC1C2CCC2(C)C1CCC2(O)CC#N (centres undefined)	·	8	·	·	·	1	2	-46
C=C(C)CSc1nnc([C@@H](N)Cc2c[nH]c3ccccc23)o1	3	-6	-7	-5	i	0	0	15
Cc1cccc(OP(=O)(Nc2ccc(F)cc2)Oc2cccc(C)c2)c1	-3	·	3	1	i	3	-4	10
O=C(C(=O)N1CCC2(CC1)OCCO2)c1c[nH]c2ccccc12	16	·	-2	-8	i	5	-5	0
C[C@]12CCC(=O)C=C1CC[C@@H]1C2[C@H](O)C[C@]2(C)C(=O)CCC12 (some centres undefined)	-14	-3	-2	-12	i	0	0	11
O=C(N/N=C/c1c(O)n(C2CC2)c(=S)[nH]c1=O)c1ccccc1O	2	·	-3	6	i	8	8	-7
Cc1cc(/C=C2/C(=O)NC(=O)N(C)C2=O)c(C)n1-c1ccccc1	65*	-21	69	-1	i	-3	2	-13	eIF4H inh retest=22;PABP FP inh retest=58*
CCCCCCC(N)CC(=O)O (centres undefined)	0	-13	-7	·	i	4	-5	-192
CCOP(=O)(OCC)C(NC(=O)NC)C(N)=O (centres undefined)	-12	-15	-3	-1	i	-2	3	13
c1ccc2c(c1)CNc1ccccc1O2	-4	-3	-2	-11	i	1	-3	·
CN(C)c1ccc(-[n+]2c(-c3ccccc3)cc(-c3ccccc3)cc2-c2ccccc2)cc1	7	·	-19	·	·	-6	-25	94*
Brc1ccc2[nH]cc(/C=N/N3CCCCC3)c2c1	5	·	-2	9	i	15	13	-19
CCC(C(=O)Nc1ccc(Cl)cc1)N1CCCC1=O (centres undefined)	·	-14	·	-7	i	3	4	5

3 neighbouring compounds from above, for reference:
SMILES	PABP FP inh	UUG fidelity	eIF4H inh	CSC inhib	Rce1 inhib	MT1-MMP act inh	MT1-MMP act inh RFP	Env fusion inh	others
CN(C)c1ccc(-[n+]2c(-c3ccccc3)cc(-c3ccccc3)cc2-c2ccccc2)cc1	7	·	-19	·	·	-6	-25	94*
Brc1ccc2[nH]cc(/C=N/N3CCCCC3)c2c1	5	·	-2	9	i	15	13	-19
CCC(C(=O)Nc1ccc(Cl)cc1)N1CCCC1=O (centres undefined)	·	-14	·	-7	i	3	4	5

Screening data deposited in PubChem BioAssay by several laboratories.

A portion of the library. The share of hits here may be higher or lower than overall.
